Bioassay records (PubChem)
D2 potentiator: human D2 receptor positive allosteric modulation; P14416; DiscoveRx D2 beta-arrestin cells, luminescence, 90 min; 100% = 57 uM dopamine signal; potentiation, % (concentration not given with the values); 360,000 tested, 0.23% active; active = potentiation of 50% or more; inconclusive = 30% to 50%; inactive = 30% or less;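 further: compound concentration not given in the record; tested on top of an EC20 dose of dopamine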
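D2 cells co-treated with compound plus 50 nM dopamine (EC20) for 90 min at 37 deg C to detect potentiation. Beta-arrestin recruitment was read as enzyme-fragment luminescence after 1 h at ambient temperature. Full response was set by 57 uM dopamine.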
Sfp PPTase inh: inhibitors of Bacillus subtilis Sfp phosphopantetheinyl transferase | Q9F4F7 | Biochemical Sfp PPTase activity, qHTS | Potency, µM, inactives show max response, negative = inhibition, most hits filed as inhibitors | 310,000 tested, 3.5% active | AID 1490; active means well fitted inhibition curve with a large enough effect; inconclusive means small, poorly fitted or top-dose-only effect, or another doubt; inactive means no such curve, though single readings can be large or run the other way;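 further: the enzyme is Sfp with the accession as filed and its product quenches rhodamine fluorescence; potency means the concentration at half of the fitted maximal effect; 0% = enzyme reaction without inhibitor and -100% = no enzyme wells; top concentration of the series not given in the record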
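With Hepes-Na pH 7.6 buffer containing 10 mM MgCl2, Sfp (15 nM) modified BHQ-2-YbbR (12.5 uM) using rhodamine-CoA (5 uM). Two reads 30 minutes apart at 525/598 nm yielded each well's rate.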
Menin MLL FP FL: displaces fluorescein MLL peptide from human menin. Fluorescence polarization, fluorescein-MLL peptide displacement from menin. FP activity change, % at 61.4 µM. 290,000 tested, under 10 active; inconclusive = falling polarisation curve, or a change in total fluorescence; inactive = total fluorescence flat and polarisation flat or rising; no compound was filed as active; the % refers to the polarisation; negative = inhibition;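 further: % of control where 0% means no effect; inhibitors lower the polarisation; unlabelled MLL peptide was the positive control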
gsp agonist: gsp mutant agonism | gsp mutant cells, cAMP HTRF, 30 min; control for the full effect not named in the record | Potency, µM (highest dose often 76.9 µM), for the others: top-dose activation (cAMP increase), actives largely listed as activators | 340,000 tested, 0.13% active | AID 624287; active = well fitted activation curve with a large enough effect; inconclusive = small, poorly fitted or top-dose-only effect, or another doubt; inactive = no such curve, though single readings can be large or run the other way; cell line not stated here;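 further: phosphodiesterase inhibitor Ro 20-1724 added with compounds to block cAMP breakdown; potency means the concentration at half of the fitted maximal effect; nearly all actives have a fitted effect of over 60% in size; about a fifth of the inactives were tested at one dose only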
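Cells in DMEM/10% FBS with G418 were pretreated with compounds in DMSO plus […] (300 uM stock) for 30 min at 37C. cAMP was measured by HTRF (cAMP-d2 plus anti-cAMP antibody-K) after 30 min at room temperature.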
gsp antagonist: antagonists of gsp mutant (McCune-Albright syndrome). gsp-mutant cells, cAMP HTRF, 30 min; control for the full effect not named in the record. Potency, µM (doses to about 76.9 µM), inactives show at the highest dose activity change, negative = inhibition, actives largely listed as inhibitors. 340,000 tested, 0.4% active. AID 624288; active = falling curve of any shape with a large fitted effect; inconclusive = falling curve, mostly with a smaller effect; inactive = flat or rising curve; cell line not stated here;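 further: intracellular cAMP measured with PDE inhibitor Ro 20-1724 present during compound exposure; potency means the concentration at half of the fitted maximal effect; on the % scale 0 is the no-effect control and ±100 the full control effect; nearly all actives have a fitted effect of over 65% in size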
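Cells in G418 medium, seeded 16-24 h, 37C; buffer exchange to DPBS + 1 mM CaCl2, 0.5 mM MgCl2, 0.05% BSA; cpds in DMSO + […] (300 uM stock), 30 min 37C; HTRF cAMP detection.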
TRPV1 PAM: enhances activation of the human vanilloid receptor TRPV1. Q8NER1. TRPV1-expressing cells, Fluo-8 calcium influx, capsaicin EC20 potentiation; host cell line not named in the record; control for the full effect not named in the record. potentiation, % at 8.33 µM. 320,000 tested, 0.02% active; active means potentiation above 80%; inconclusive means 30% to 80%; inactive means below 30%; further: 0% is about no effect
Target sequence (Q8NER1 whole entry, looked up): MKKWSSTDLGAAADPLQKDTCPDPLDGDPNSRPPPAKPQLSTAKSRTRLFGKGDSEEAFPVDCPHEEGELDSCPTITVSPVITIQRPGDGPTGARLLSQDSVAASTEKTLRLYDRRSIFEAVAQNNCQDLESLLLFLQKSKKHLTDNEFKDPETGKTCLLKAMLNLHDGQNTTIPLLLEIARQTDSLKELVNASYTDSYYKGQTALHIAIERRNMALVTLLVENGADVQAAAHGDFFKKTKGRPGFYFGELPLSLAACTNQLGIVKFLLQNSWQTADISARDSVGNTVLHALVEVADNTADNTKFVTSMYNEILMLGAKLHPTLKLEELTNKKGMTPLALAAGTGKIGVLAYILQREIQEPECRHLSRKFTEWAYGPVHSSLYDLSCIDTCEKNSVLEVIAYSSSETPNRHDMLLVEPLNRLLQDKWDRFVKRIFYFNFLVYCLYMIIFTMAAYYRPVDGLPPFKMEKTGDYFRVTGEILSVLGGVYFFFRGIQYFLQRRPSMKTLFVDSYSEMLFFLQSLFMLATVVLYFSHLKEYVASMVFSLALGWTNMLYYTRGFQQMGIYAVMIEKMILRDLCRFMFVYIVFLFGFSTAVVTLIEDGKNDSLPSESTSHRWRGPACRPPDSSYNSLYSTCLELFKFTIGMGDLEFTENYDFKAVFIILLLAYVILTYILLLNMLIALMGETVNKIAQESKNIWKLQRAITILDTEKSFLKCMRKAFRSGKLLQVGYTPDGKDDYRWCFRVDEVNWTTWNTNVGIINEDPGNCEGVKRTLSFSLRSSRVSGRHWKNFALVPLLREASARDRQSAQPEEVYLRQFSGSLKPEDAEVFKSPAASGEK
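TRPV1-expressing cells were cultured overnight at 35.5C and loaded with Fluo-8 calcium dye for 40 to 90 min at room temperature. After a 10 s baseline, compound was added and calcium influx was read kinetically for 3 min (ex 480/em 520 nm).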
ClpP mod: qHTS Assay for Activators of ClpP | AID 651965, 2013 | Potency, µM (series often up to 57.5 µM), inactives show at the highest dose activity change, negative = active | purified B. subtilis ClpP, FRET peptide cleavage, 20 min | 340,000 tested, 1.9% active | ATP-dependent Clp protease proteolytic subunit (Bacillus subtilis (strain 168)), P80244; active = well fitted falling curve with a large enough effect; inconclusive = small, poorly fitted or top-dose-only effect; inactive = no such curve, though single readings can be large or run the other way; further: potency means the concentration at half of the fitted maximal effect; the source files actives as falling curves though it sought activators and does not explain the sign; nearly all actives have a fitted effect of over 65% in size; many hits overshoot -100%
Target sequence (P80244 whole entry, looked up): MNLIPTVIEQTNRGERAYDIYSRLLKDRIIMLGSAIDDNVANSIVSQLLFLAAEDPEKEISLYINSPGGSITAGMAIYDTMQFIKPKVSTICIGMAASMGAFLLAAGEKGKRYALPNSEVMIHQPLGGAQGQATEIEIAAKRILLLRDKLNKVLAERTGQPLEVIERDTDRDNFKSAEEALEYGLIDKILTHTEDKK
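ClpP 10 microg/mL final, pH 8 Tris/KCl buffer with BSA, glycerol, Tween-20; compound pinned in; FRET-FV substrate; RT 20 min; Ex320/Em430; ΔFRET vs ADEP 5.8 microM, DMSO, no enzyme.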
Active calls of the source: *; & = joins results of further samples; [ ] = dose if it differs, or a comment.

Screening Cc1cccc2c(C(=O)N3CCN(c4ccccn4)CC3)cc(-c3cccc(Br)c3)nc12 returned D2 potentiator -28, Sfp PPTase inh inconclusive, Menin MLL FP FL 8.2, gsp agonist 2%, gsp antagonist 12%, TRPV1 PAM -15 and ClpP mod -15%.
O=C(CC1C(=O)NCCN1Cc1ccc(Cl)c(F)c1)NC1CCC1 (stereo unspecified) was read as D2 potentiator -14, Sfp PPTase inh -2%, gsp agonist 9%, gsp antagonist -12%, TRPV1 PAM -8 and ClpP mod -10%.
Cc1ccc(C2CC(c3cccc(Cl)c3)n3nc(N)nc3N2)cc1 (stereo unspecified) was read as D2 potentiator -9, Sfp PPTase inh 12%, Menin MLL FP FL 5.9, gsp agonist -22%, gsp antagonist -8%, TRPV1 PAM 2 and ClpP mod -11%.
For CC1CCN(C(c2ccccc2)c2nnnn2C(C)(C)C)CC1 (stereo unspecified) the results were D2 potentiator -7, Sfp PPTase inh -20%, Menin MLL FP FL -2.4, gsp agonist -44%[inhibitor], gsp antagonist -4%, TRPV1 PAM -13 and ClpP mod -11%.
Screening O=C(O)c1cccc(Cl)n1 returned D2 potentiator 0, Sfp PPTase inh -3%, Menin MLL FP FL -5.4, gsp agonist 30%, gsp antagonist -1%, TRPV1 PAM -6 and ClpP mod -4.5%.
`COc1cc(OC)cc(-c2nc3nc(C)c(CCC(=O)NCc4ccco4)c(C)n3n2)c1` gave D2 potentiator 4, Sfp PPTase inh 9%, Menin MLL FP FL 0.1, gsp agonist 9%, gsp antagonist -26%, TRPV1 PAM 3 and ClpP mod -11%.
`CCC(CO)Oc1cc(NCc2ccccn2)c2ncn(C(C)C)c2c1` (stereo unspecified) gave D2 potentiator 0, gsp agonist -13%, gsp antagonist 9% and ClpP mod -0.7%.
For CN1CCN(C(=O)c2cnn(-c3ccccc3)c2NC(=O)c2ccc([N+](=O)[O-])cc2)CC1 the results were D2 potentiator -5, Sfp PPTase inh 2%, Menin MLL FP FL -13, gsp agonist -3%, gsp antagonist 4% and TRPV1 PAM inconclusive.
Screening NC(=O)CC(NC(=O)c1cccc(Br)c1)c1ccc(N2CCCCCC2)c([N+](=O)[O-])c1 (stereo unspecified) returned D2 potentiator -14, Sfp PPTase inh -5%, Menin MLL FP FL -1.9, gsp antagonist -4%, TRPV1 PAM 5 and ClpP mod -0.2%.
COC(=O)CSc1nc(-c2ccccc2)nc2ccc(F)cc12 was read as D2 potentiator -14, Sfp PPTase inh 4%, Menin MLL FP FL 6.0, gsp agonist inconclusive, gsp antagonist -1%, TRPV1 PAM -14 and ClpP mod -14%.
Screening O=C(NCc1ccco1)c1cc(S(=O)(=O)N2CCOCC2)ccc1Br returned D2 potentiator -5, Sfp PPTase inh 9%, gsp agonist 4%, gsp antagonist 9%, TRPV1 PAM -34 and ClpP mod -1.1%.
`COc1ccc(/C=C/C(=O)NC2CCS(=O)(=O)C2)cc1` (stereo unspecified) gave D2 potentiator -17, gsp agonist 20%[15.4 µM], gsp antagonist -10%, TRPV1 PAM -11 and ClpP mod inconclusive.
For COc1ccc(CCNC(=O)CSc2nnc(-c3ccc(F)cc3)c3ccccc23)cc1OC the results were D2 potentiator -12, Sfp PPTase inh 17%, Menin MLL FP FL 4.0, gsp agonist -49%[inhibitor], gsp antagonist -13%, TRPV1 PAM 5 and ClpP mod -2.7%.
Screening CCCCc1cc(=O)oc2c(CN3CCCC3)c(O)c(Cl)cc12 returned D2 potentiator -5, Sfp PPTase inh 4%, Menin MLL FP FL 1.8, gsp agonist -8%, gsp antagonist -2%, TRPV1 PAM 9 and ClpP mod -15%.
Cc1cc(C(=O)N2CCc3ccccc3C2)c(C)o1 was read as D2 potentiator -15, gsp agonist -2%, gsp antagonist -6% and ClpP mod -0.5%.
CCN(CC(=O)Nc1c(F)cccc1F)C(=O)CCC(=O)c1ccc(C)cc1 was read as D2 potentiator 2, gsp agonist -1%, gsp antagonist 1%, TRPV1 PAM -4 and ClpP mod 1.0%.
`CCOC(=O)c1oc2ccccc2c1NC(=O)c1ccc(S(=O)(=O)N(C)C)cc1` gave D2 potentiator -3, Sfp PPTase inh 11%, Menin MLL FP FL 0.3, gsp agonist 12%, gsp antagonist 9% and ClpP mod 394%.
Cc1ccccc1CC1(CO)CCCN(C(=O)c2cc(-c3ccccc3)no2)C1 (stereo unspecified) was read as D2 potentiator -12, Sfp PPTase inh 2%, Menin MLL FP FL inconclusive, gsp agonist 8%, gsp antagonist -4%, TRPV1 PAM 0 and ClpP mod 1.4%.
For c1ccc(-n2c(-c3ccncc3)nnc2-c2cccs2)cc1 the results were D2 potentiator -5, Sfp PPTase inh 13%, Menin MLL FP FL 1.7, gsp agonist 16%, gsp antagonist -23%, TRPV1 PAM -2 and ClpP mod inconclusive.
For O=C(CNC(=O)c1[nH]cnc1C(=O)NC(c1ccccc1)c1ccccc1)OCc1ccccc1 the results were D2 potentiator 4, Sfp PPTase inh 4%, Menin MLL FP FL -4.3, gsp agonist -37%[inhibitor], gsp antagonist -7%, TRPV1 PAM 5 and ClpP mod -1.2%.
For COC(=O)c1ccc(NC(=S)N2CCN(Cc3ccccc3Cl)CC2)cc1 the results were D2 potentiator -3, Sfp PPTase inh 19%, Menin MLL FP FL -2.4, gsp agonist 4%, gsp antagonist -17%, TRPV1 PAM -8 and ClpP mod -2.7%.
Screening CCCCC(=O)Nc1ccc(C(=O)NNC(=O)CCc2ccccc2)cc1 returned D2 potentiator -10, Sfp PPTase inh 2%, Menin MLL FP FL 3.5, gsp agonist -53%[inhibitor], gsp antagonist 7%, TRPV1 PAM -6 and ClpP mod -16%.
`Cc1ccc(NC(=O)c2ccc(N3C(=O)C4CC=C(Cl)CC4C3=O)cc2)cc1` (stereo unspecified) gave D2 potentiator -20, Sfp PPTase inh 5%, Menin MLL FP FL 2.1, gsp agonist -21%, gsp antagonist 4%, TRPV1 PAM -7 and ClpP mod -0.4%.
`CC(C)CCN1C(=O)CCC1(C)C(=O)NC1CCCCCCC1` (stereo unspecified) gave D2 potentiator -6, Sfp PPTase inh 13%, Menin MLL FP FL -0.8, gsp agonist -7%, gsp antagonist 6%, TRPV1 PAM -9 and ClpP mod 0.8%.
`O=C(CCc1ccccn1)N1CCCC(CNS(=O)(=O)c2cccs2)C1` (stereo unspecified) gave D2 potentiator -6, Sfp PPTase inh 9%, Menin MLL FP FL -3.5, gsp agonist -43%[inhibitor], gsp antagonist 19%, TRPV1 PAM -2 and ClpP mod -1.0%.
For Cc1cc(OC(=O)c2ccccc2F)c([N+](=O)[O-])c(=O)[nH]1 the results were D2 potentiator -8, Sfp PPTase inh 12%, gsp agonist -15%, gsp antagonist -8%, TRPV1 PAM 9 and ClpP mod -0.2%.
For Cc1nnc(SCCc2ccccc2)[nH]c1=O the results were D2 potentiator -5, Sfp PPTase inh 16%, Menin MLL FP FL 3.5, gsp agonist -50%[inhibitor], gsp antagonist -6% and ClpP mod 1.3%.
For N#Cc1sc(NCc2ccccn2)nc1Cl the results were D2 potentiator -1, Sfp PPTase inh 16%, Menin MLL FP FL 1.2, gsp agonist 3%, gsp antagonist 1% and TRPV1 PAM 0.
For COc1ccc(N(C)C(=O)c2cc3c(s2)-c2c(C)cccc2OC3)c(OC)c1 the results were D2 potentiator -10, Sfp PPTase inh inconclusive, Menin MLL FP FL 0.8, gsp agonist inconclusive, gsp antagonist inconclusive, TRPV1 PAM -6 and ClpP mod -16%&-23%.
Screening O=C(CS(=O)(=O)Cc1ccccc1)N1CCN(C(=O)c2ccco2)CC1 returned D2 potentiator -3, Sfp PPTase inh 11%, Menin MLL FP FL -1.0, gsp agonist -2%, gsp antagonist -10%, TRPV1 PAM 2 and ClpP mod -1.0%.
Screening O=C(COc1cccc(C(F)(F)F)c1)Nc1ccc(S(=O)(=O)N2CCCC2)cc1 returned D2 potentiator 6, Sfp PPTase inh -5%, Menin MLL FP FL 4.7, gsp agonist 2%, gsp antagonist -6%, TRPV1 PAM 5 and ClpP mod -0.7%.
Screening CCN(CC(=O)Nc1ccc2c(c1)OCCO2)C(=O)CC(NC(C)=O)c1ccccc1 (stereo unspecified) returned D2 potentiator -4, gsp agonist -36%[inhibitor], gsp antagonist 6%, TRPV1 PAM -9 and ClpP mod -3.9%.
For O=C1CCN(C(=O)Nc2cccc(Cl)c2)N1 the results were D2 potentiator -17, Sfp PPTase inh -22%, Menin MLL FP FL -1.2, gsp agonist 15%, gsp antagonist 4%, TRPV1 PAM 1 and ClpP mod 0.1%.
`COc1cc(OC)cc(C(=O)NC(C)c2cnn(-c3ccccc3C)c2C)c1` (stereo unspecified) gave D2 potentiator -6, Sfp PPTase inh -21%, Menin MLL FP FL -0.5, gsp agonist -39%[inhibitor], gsp antagonist inconclusive, TRPV1 PAM 1 and ClpP mod 1.0%.
For O=C(O)C(Cc1ccccc1)N1C(=O)/C(=C/c2cccnc2)SC1=S (stereo unspecified) the results were D2 potentiator -4, Sfp PPTase inh 79µM*, Menin MLL FP FL 5.9, gsp agonist 11%[15.4 µM], gsp antagonist 3% and TRPV1 PAM -3.
Screening CCCn1nc(C(=O)N(C)CC(=O)Nc2ccc(OCC)c(OCC)c2)c2ccccc2c1=O returned D2 potentiator -15, gsp agonist 2%, gsp antagonist 4%, TRPV1 PAM -4 and ClpP mod 25µM*.
Screening N#CC(C(=O)c1ccccc1)=C1SCCS1 returned D2 potentiator -3, Sfp PPTase inh 12%, Menin MLL FP FL 3.6, gsp agonist -23%[15.4 µM], gsp antagonist 1%, TRPV1 PAM -8 and ClpP mod -1.0%.
COc1cc(OC)c(/C=C2\C(=O)Nc3ccccc32)c(OC)c1 was read as D2 potentiator 5, gsp antagonist 10%, TRPV1 PAM 4 and ClpP mod -2.1%.
For CCOC(=O)CNC(c1ccccc1)c1cc(Br)ccc1NC(=O)OCC (stereo unspecified) the results were D2 potentiator -5, Sfp PPTase inh 7%, Menin MLL FP FL 5.4, gsp agonist inconclusive, gsp antagonist -24%, TRPV1 PAM -16 and ClpP mod -0.1%.
`COc1cc(C(CCN2CCCCC2)c2c(OC)cc(OC)c3c(-c4ccccc4)cc(=O)oc23)cc(OC)c1OC` (stereo unspecified) gave D2 potentiator -20, Sfp PPTase inh inconclusive, Menin MLL FP FL 0.3&-0.6, gsp antagonist 4%, TRPV1 PAM -3 and ClpP mod 4.2%.
